PINK1 modulator = PINK1 expression modulation; hit rate 0.2% among 410,000; AID 624263; PINK1 immunofluorescence, high-content cytometry, 24 h; Potency, µM (doses to about 76.6 µM), inactives show at the highest dose activation (PINK1 increase), usual class: activators; active = well fitted activation curve with a large enough effect; inconclusive = small, poorly fitted or top-dose-only effect; inactive = flat fitted curve, though single readings scatter; cell line not stated here;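 also: potency is read from the fitted curve at half-maximal effect; % of control where 0% means no effect; nearly all actives have a fitted effect of over 65% in size; a mitochondrial uncoupler was the plate control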
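PINK1 protein level read as immunofluorescence by microplate cytometer in a fixed, stained stable cell line after 24 h exposure to five compound concentrations, with CCCP as control.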
TRPV1 PAM = enhances activation of the human vanilloid receptor TRPV1 | TRPV1-expressing cells, Fluo-8 calcium influx, capsaicin EC20 potentiation; host cell line not named in the record; control for the full effect not named in the record | potentiation, % at 8.33 µM | hit rate 0.02% among 320,000 | Q8NER1; active means potentiation above 80%; inconclusive means 30% to 80%; inactive means below 30%; also: 0% is about no effect
Target sequence (Q8NER1 whole entry, looked up): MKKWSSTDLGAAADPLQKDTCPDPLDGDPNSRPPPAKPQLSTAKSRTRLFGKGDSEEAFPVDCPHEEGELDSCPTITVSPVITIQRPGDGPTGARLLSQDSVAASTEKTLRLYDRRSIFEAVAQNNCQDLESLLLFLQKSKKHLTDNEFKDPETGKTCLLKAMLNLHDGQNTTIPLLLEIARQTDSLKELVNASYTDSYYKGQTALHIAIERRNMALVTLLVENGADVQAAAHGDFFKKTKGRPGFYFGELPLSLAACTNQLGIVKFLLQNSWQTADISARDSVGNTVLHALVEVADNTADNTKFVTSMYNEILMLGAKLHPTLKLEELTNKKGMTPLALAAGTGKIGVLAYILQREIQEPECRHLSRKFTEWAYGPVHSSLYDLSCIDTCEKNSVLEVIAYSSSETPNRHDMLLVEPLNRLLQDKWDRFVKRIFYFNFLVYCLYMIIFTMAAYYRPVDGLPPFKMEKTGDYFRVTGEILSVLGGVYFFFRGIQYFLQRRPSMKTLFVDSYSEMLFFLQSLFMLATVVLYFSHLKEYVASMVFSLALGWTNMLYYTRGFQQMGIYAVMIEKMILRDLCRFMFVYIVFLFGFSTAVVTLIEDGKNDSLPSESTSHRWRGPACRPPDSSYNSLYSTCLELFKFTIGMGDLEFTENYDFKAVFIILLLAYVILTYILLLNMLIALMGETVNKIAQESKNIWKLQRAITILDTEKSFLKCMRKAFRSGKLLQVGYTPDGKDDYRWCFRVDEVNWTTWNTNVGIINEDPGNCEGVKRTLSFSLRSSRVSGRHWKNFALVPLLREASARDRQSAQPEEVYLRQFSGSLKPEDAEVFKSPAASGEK
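Fluo-8 calcium influx in TRPV1-expressing cells, kinetic read (ex 480/em 520 nm). Compound added and read 3 min for agonist activity, followed by capsaicin at EC20 final and 2 min further read for enhancement.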
Sfp inh = Sfp phosphopantetheinyl transferase inhibition; Potency, µM, without a hit: max response, negative = inhibition, hits mostly inhibitors; AID 1490; Biochemical Sfp PPTase activity, qHTS; hit rate 3.5% among 310,000; Q9F4F7; active = well fitted inhibition curve with a large enough effect; inconclusive = small, poorly fitted or top-dose-only effect, or another doubt; inactive = no such curve, though single readings can be large or run the other way;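 also: the enzyme is Sfp with the accession as filed and its product quenches rhodamine fluorescence; potency is read from the fitted curve at half-maximal effect; 0% = enzyme reaction without inhibitor and -100% = no enzyme wells; top concentration of the series not given in the record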
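Fluorescence-quenching assay with 15 nM Sfp, 5 uM rhodamine-CoA and 12.5 uM BHQ-2-labelled ybbR peptide in pH 7.6 Hepes/MgCl2 buffer. Enzyme was pre-incubated with compound for 15 min at room temperature. Rate was taken from the 30-min fluorescence change (525/598 nm).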
D2 agonist = agonists of human D2 dopamine receptor (beta-arrestin) | P14416 | DiscoveRx PathHunter D2 beta-arrestin, luminescence, 90 min; 100% = 57 uM dopamine signal | activation, % (test concentration not listed) | hit rate 0.084% among 360,000 | AID 624465; in the data active = activation above about 40%; inconclusive = about 15% to 40%; inactive = below about 15%; also: compound concentration not given in the record; the text of the record calls up to 30% inactive
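DiscoveRx PathHunter D2 beta-arrestin cells (2,100/well) attached overnight, then compound-stimulated 90 min at 37 C in HBSS/10 mM HEPES/0.1% Tween-20 buffer; beta-galactosidase complementation read by luminescence after 1 h at ambient temperature. Dopamine 57 uM final (EC100) as control.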
Six1-Eya2 inh = inhibitors of human Six1/Eya2 interaction | activity change, % (no concentration beside the values) | AID 651725 | hit rate 0.56% among 360,000 | AlphaScreen GST-Six1/His-Eya2 binding, biochemical; active compounds read low; control for the full effect not named in the record | Q15475+O00167; in the data active = activity change below about -65%; inconclusive = about -30% to -65%; inactive = above about -30%; also: % is scaled to controls: 0 for no effect and ±100 for the full control effect
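Compounds are tested against tagged Six1 and Eya2 proteins bridged by glutathione donor and nickel acceptor beads; after a one-hour incubation at 37 °C without light, AlphaScreen emission is recorded.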
D2 PAM = potentiates the human D2 dopamine receptor allosterically | hit rate 0.23% among 360,000 | DiscoveRx D2 beta-arrestin cells, luminescence, 90 min; 100% = 57 uM dopamine signal | potentiation, % (test concentration not listed) | P14416 | AID 624464; active = potentiation of 50% or more; inconclusive = 30% to 50%; inactive = 30% or less;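 also: compound concentration not given in the record; tested on top of an EC20 dose of dopamine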
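PathHunter D2 cells, attached overnight at 37 deg C, received compound in DMSO plus dopamine at EC20 (50 nM final) for 90 min at 37 deg C. Beta-arrestin recruitment was read as luminescence after 1 h with detection reagent at ambient temperature.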
CtBP-E1A blk = CtBP/E1A binding inhibition | AlphaScreen GST-E1A/His-CtBP binding, 1536-well; active compounds read low; control for the full effect not named in the record | hit rate 0.49% among 340,000 | AID 651724 | activity change, % (test concentration not listed); in the data active means activity change below about -65%; inconclusive means about -30% to -65%; inactive means above about -30%; also: % is scaled to controls: 0 for no effect and ±100 for the full control effect
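In 5 uL wells, 23 nL compound meets equimolar GST-E1A and His-CtBP (5X stock 125 nM each) for 2 h, 37 °C. Beads (5X, 50 ug/mL) then 1 h, 37 °C, dark.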
Active calls of the source: *; u = inconclusive; x = not tested or not shown; & = joins results of further samples; [ ] = dose if it differs, or a comment.

SMILES | PINK1 modulator | TRPV1 PAM | Sfp inh | D2 agonist | Six1-Eya2 inh | D2 PAM | CtBP-E1A blk
CN1C(=O)c2c(sc3c2CC(C)(C)SC3)N2CCN=C12 | 0.1% | 7 | u | -2.0 | -3 | -4 | 2
COc1ccc(-n2nc(C(=O)NCC(=O)NCCC3=CCCCC3)c3ccccc3c2=O)cc1 | 1.1% | u | -8% | 4.0 | 4 | 1 | 32
Cc1ccc2oc(C(=O)N3CCN(CCO)CC3)c(C)c2c1 | -0.7% | 1 | -1% | 1.4 | 6 | -25 | -9
O=S1(=O)[C@H]2C[C@@H]3C=C[C@@]2(CN1Cc1ccc(F)cc1)O3 | 1.2% | -2 | 17% | -2.8 | 13 | -7 | -18
Cc1ccc(/C(N)=N/OC(=O)COc2ccc(Cl)c(C)c2)cc1 | 4.2% | 3 | u | -0.1 | 10 | -11 | 9
CCNC(=O)C1(C)CCCN(Cc2cccc(Oc3ccccc3)c2)C1 (centres undefined) | 1.4% | x | x | -5.5 | 2 | -9 | 2
CC(NC(=O)Cc1ccsc1)c1ccc(F)cc1 (centres undefined) | 2.4% | -7 | 15% | -0.6 | 10 | -4 | 3
CC1CNC(=S)N(c2ccccc2)C1=O (centres undefined) | -3.8% | x | x | -1.5 | 4 | -8 | -5
COc1ccc(C2C3C(=O)N(Cc4ccccc4)C(=O)C3ON2c2ccccc2)c(OC)c1OC (centres undefined) | -0.5% | -12 | 9% | 5.7 | 0 | 8 | -4
CCc1ccc(Nc2cc(C)nc3ncnn23)cc1 | -1.2% | 5 | -3% | -2.5 | 1 | -3 | -16
CC1(c2nnc(Cc3ccccc3)o2)CC(c2ccccc2[N+](=O)[O-])=NO1 (centres undefined) | 0.2% | u | x | 1.4 | -4 | -24 | -16
Cc1ccc(-c2noc(CCC(=O)NCCN3CCc4ccccc4C3)n2)cc1 | 1.6% | 7 | -12% | 0.0 | 4 | -13 | -8
CN(C)C(=S)Nc1ccc(Cc2ccncc2)cc1 | 3.0% | -7 | -26% | 4.7 | 4 | -1 | x
Cc1cnc(CN(C)C(=O)CC2C(=O)NCCN2Cc2cccc(F)c2F)[nH]1 (centres undefined) | 1.7% | 15 | 5% | 0.1 | 0 | -17 | 8
COc1cccc(CNC(=O)COC(=O)CCCNC(=O)c2ccc(Cl)cc2)c1 | 0.3% | -6 | x | -4.2 | 3 | -2 | -3
CCn1cc(C(=O)NCC(OC)OC)c(=O)c2cc(S(=O)(=O)N3CCC(C)CC3)ccc21 | -0.5% | 8 | 0% | 1.5 | 0 | -9 | x
CCN1C(=O)C(CC(=O)Nc2ccc(F)cc2)N(Cc2cccs2)C1=S (centres undefined) | u | -28 | -3% | 2.7 | -3 | 5 | 4
Cc1cccc(NC(=O)c2cc(S(=O)(=O)N(C)c3ccc(F)cc3)ccc2Cl)n1 | 2.6% | -9 | x | -0.5 | 6 | 5 | 0
CN(C)CCCN(C(=O)CCc1ccccc1)c1nc2c(F)cccc2s1 | -5.1% | 2 | -6% | -2.7 | -9 | -28 | -12
O=C(O)COc1ccccc1/C=N/NC(=O)C(O)c1ccccc1 (centres undefined) | 0.3% | 12 | -3% | -6.4 | -5 | -5 | 7
C=CCc1cccc2cc(C(=O)NCCOC)c(=O)oc12 | 1.4% | 0 | 22% | -1.8 | 14 | -5 | 6
Cn1c(=O)c2cc(S(=O)(=O)NCCC(=O)NCC3CCCO3)ccc2n(C)c1=O (centres undefined) | 11%[38.3 µM] | -20 | 13% | 0.4 | -6 | 7 | -1
CC(C)CN1CCN(Cc2cc(F)ccc2-n2cccn2)CC1CCO (centres undefined) | 0.5% | 4 | 1% | -2.7 | 1 | -6 | -18
Cc1ccc2[nH]cc(S(=O)(=O)c3ccc(C)c(C)c3)c(=O)c2c1 | 1.1%&9.7% | 3 | 8% | -2.7 | 6 | -1 | 4
COc1ccc(Cc2nc3ccc(C(=O)N4CCN(C)C(C)C4)cc3o2)cc1OC (centres undefined) | 0.1% | 6 | 13% | 2.2 | 7 | 0 | 0
SMILES | PINK1 modulator | TRPV1 PAM | Sfp inh | D2 agonist | Six1-Eya2 inh | D2 PAM | CtBP-E1A blk
CCC(C)(C)n1nnnc1C(c1cc2ccc(OC)cc2[nH]c1=O)N1CCCCC1 (centres undefined) | -1.4% | -2 | 3% | -3.1 | 5 | -6 | 1
Cc1cc(C)n2nc3nc(N4CCCCC4)nc(-c4ccco4)c3c2n1 | 11% | u | u | -1.7 | -29 | -20 | -15
O=[N+]([O-])c1cc(C(F)(F)F)ccc1NCCOc1ccccc1 | 2.0% | 4 | -5% | -3.5 | -28 | -13 | 0
Cc1ccc(-c2nnc(NC3CCCC3)s2)cc1 | 9.6% | -13 | 3% | -4.0 | 8 | -20 | 7
Cc1ccc(S(=O)(=O)CC(=O)NCc2ccc(Cl)cc2)cc1 | 4.6% | -1 | x | 0.9 | 5 | -10 | -5
O=C(O)c1cc(-c2ccc3c(c2)OCCO3)n[nH]1 | 0.5% | 2 | -3% | -3.6 | 7 | -2 | 7
CC1(C)NC(=O)N(CC(O)CN2C(=O)NC(C)(C)C2=O)C1=O | 1.0% | 2 | 2% | -2.5 | 5 | -1 | 14
CC(C)(C)c1ccc(S(=O)(=O)NC(=O)C2(C)CCN2C(=O)Cc2cccc3ccccc23)cc1 (centres undefined) | 0.7% | x | x | -3.8 | -6 | -1 | -11
O=C(NNC(=O)C1CCC1)c1ccc(Cl)cc1 | 2.3% | 0 | 17% | -2.6 | -4 | -12 | 0
COc1ccccc1CNC(=O)CC1Sc2ccccc2NC1=O (centres undefined) | 0.3% | -4 | -6% | 0.1 | 7 | 11 | 14
CCC(C)Sc1nc2c(c(=O)[nH]c(=O)n2C)n1CC(O)COc1ccccc1C (centres undefined) | -1.6% | 0 | 40µM* | -2.0 | 1 | -2 | 0
Cc1ccc(/C=N/NC(=O)NN(C)c2ncc(C(F)(F)F)cc2Cl)cc1 | 11% | 4 | 12% | -2.3 | 4 | -7 | -1
O=C1c2oc3ccc(Cl)cc3c(=O)c2C(c2cccc(Br)c2)N1CCO (centres undefined) | 1.2% | -9 | 4% | -1.4 | -12 | -3 | -3
Cc1cc(C)nc(N2CCN(c3ccc(F)cc3)CC2)n1 | 14% | -3 | 18% | -1.9 | -7 | -2 | 6
CCOC(=O)C1=C(C)N(C)C(=S)N(C)C1c1ccc(OC)cc1 (centres undefined) | 1.9% | 0 | 6% | -5.3 | 17 | -2 | 13
CN(Cc1nc(-c2ccc(Cl)cc2)no1)C(=O)c1ccco1 | 0.7% | 5 | 11% | -5.8 | -10 | -6 | 5
Cc1ccc(NC(=S)N2CCC(NC(=O)C3CCCCC3)CC2)cc1C | 8.5% | -6 | 14% | -4.0 | 2 | -5 | 13
NS(=O)(=O)c1ccc(NC(=O)COC(=O)CSc2n[nH]c(-c3ccccc3)n2)cc1 | 3.8%[38.3 µM] | 4 | 8% | 1.8 | 2 | -2 | 8
COCCn1c(SCc2ccc(C(=O)OC)o2)nnc1-c1c[nH]c2ccccc12 | -0.3% | 16 | 1% | 1.6 | -4 | 3 | 1
O=C(Nc1nccs1)c1cc(Cl)ccc1[N+](=O)[O-] | 0.0% | 2 | 5% | 0.6 | 2 | -6 | -6
CC(=O)Nc1ccc(S(=O)(=O)N(CCCN2CCOCC2)Cc2cccs2)cc1 | 5.9% | 1 | -27% | -5.6 | 2 | -4 | -7
O=C(C1CCCN1S(=O)(=O)c1ccc(Cl)c(Cl)c1)N1CCOCC1 (centres undefined) | -3.1% | -8 | 8% | -1.6 | 4 | -8 | 3
Cc1cccc(N(Cc2ccccc2)C(=O)c2cc(S(=O)(=O)N3CCOCC3)ccc2Cl)c1 | -3.7% | 3 | x | -2.2 | -14 | -26 | -5
CCOC(=O)CC(c1ccc(N)cc1)n1c(C)ccc1C (centres undefined) | 2.4% | -2 | 19% | -2.5 | 6 | 0 | -5
CNc1ccc(C(=O)OCC(=O)Nc2ccnn2C(C)C)cc1[N+](=O)[O-] | -0.4% | -2 | x | -6.7 | 7 | -10 | 3

Sorted by formula weight (descending): part of the list above
SMILES | PINK1 modulator | TRPV1 PAM | Sfp inh | D2 agonist | Six1-Eya2 inh | D2 PAM | CtBP-E1A blk
Cn1c(=O)c2cc(S(=O)(=O)NCCC(=O)NCC3CCCO3)ccc2n(C)c1=O (centres undefined) | 11%[38.3 µM] | -20 | 13% | 0.4 | -6 | 7 | -1
COc1ccc(Cc2nc3ccc(C(=O)N4CCN(C)C(C)C4)cc3o2)cc1OC (centres undefined) | 0.1% | 6 | 13% | 2.2 | 7 | 0 | 0
Cc1cc(C)n2nc3nc(N4CCCCC4)nc(-c4ccco4)c3c2n1 | 11% | u | u | -1.7 | -29 | -20 | -15
CCOC(=O)C1=C(C)N(C)C(=S)N(C)C1c1ccc(OC)cc1 (centres undefined) | 1.9% | 0 | 6% | -5.3 | 17 | -2 | 13
O=C(O)COc1ccccc1/C=N/NC(=O)C(O)c1ccccc1 (centres undefined) | 0.3% | 12 | -3% | -6.4 | -5 | -5 | 7
CC(NC(=O)Cc1ccsc1)c1ccc(F)cc1 (centres undefined) | 2.4% | -7 | 15% | -0.6 | 10 | -4 | 3
Cc1ccc(-c2nnc(NC3CCCC3)s2)cc1 | 9.6% | -13 | 3% | -4.0 | 8 | -20 | 7
CCc1ccc(Nc2cc(C)nc3ncnn23)cc1 | -1.2% | 5 | -3% | -2.5 | 1 | -3 | -16

Further structures follow:
SMILES | PINK1 modulator | TRPV1 PAM | Sfp inh | D2 agonist | Six1-Eya2 inh | D2 PAM | CtBP-E1A blk
Cc1ccc(-c2nn[nH]n2)cc1 | 11% | 13 | 16% | -4.1 | 4 | -5 | 6
CCOc1ccc(NC(=O)CCc2c(C)nn(-c3ccc(N4CCCCC4)nn3)c2C)cc1 | 6.0% | -15 | 14% | -0.9 | 0 | -3 | 2
O=S(=O)(c1ccc(Br)s1)n1cccn1 | 4.0% | 7 | 28% | -0.5 | 0 | -10 | 7
O=C(Nc1ncc2c(n1)-c1ccccc1OC2)c1cccc([N+](=O)[O-])c1 | 1.4% | 4 | -4% | 4.9 | -14 | 0 | 3
CC(C)(C)OC(=O)N1CCC(NC(=O)c2nc[nH]c2C(=O)N2CCN(C(=O)OC(C)(C)C)CC2)CC1 | -0.4% | 6 | x | 0.7 | 8 | 0 | 8
Cc1c(C(=O)Nc2ccccc2)csc1-c1ccccc1 | u | 4 | 11% | 1.2 | 5 | -9 | -5
